Assay outcomes as filed in PubChem BioAssay.
miR-21 FLuc = raises the signal of a miR-21 reporter. Potency, µM (top dose mostly 38.3 µM), inactives show at the top dose reporter change, positive = more light. AID 2288. 340,000 tested, under 10 active. HeLa miR-21 FLuc reporter, luciferase, 48 h; active = well fitted rising curve with a large enough effect; inconclusive = small, poorly fitted or top-dose-only effect; inactive = no such curve, though single readings can be large or run the other way;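 further: % of control where 0% means no effect; miR-21 action dims this reporter so a rising signal means less miR-21 action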
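Using DMEM plus 10% FBS, HeLa miR-21-FLuc cells are incubated with test compounds (final up to about 40uM) for 48 hours; firefly luciferase signal is then imaged following reagent-mediated lysis.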
Rango complex inh = Rango-importin beta binding inhibition; Q14974; Rango CFP/YFP FRET sensor + importin beta, 45 min; Potency, µM (highest dose often 92.2 µM), without a hit: top-dose inhibition of complex formation; 0.031% of 340,000 active; active = rising FRET ratio curve, often small or poorly fitted; inconclusive = mostly compound fluorescence or quenching in the first reads; inactive = flat curves in all reads;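 further: potency means the concentration at half of the fitted maximal effect; 0% = DMSO wells and 100% = buffer wells lacking importin beta; nearly all actives have a fitted effect of over 15% in size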
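FRET biosensor (snurportin 1 IBB flanked by EYFP and cerulean), 50 nM, with compound 5 min, then 0.125 microM importin beta in PBS, 1 mM DTT, 0.02% Tween-20, 0.1% BSA. CFP/YFP ratio read after 45 min at room temperature; pre-read flags interference.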
GLA inh pH 4.5 = blocks human alpha-galactosidase A at pH 4.5 | activity change, negative = inhibition, % at 105 µM | 230,000 tested, under 10 active | purified enzyme, 4-MU-alpha-Gal fluorescence, pH 4.5; inconclusive = small, poorly fitted or top-dose-only inhibition, or a rising curve; inactive = flat fitted curve, though single readings scatter; no compound was filed as active;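 further: 0% = full activity with enzyme and -100% = basal without enzyme; dose as in the result columns while the protocol names 77 µM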
Target sequence (P06280 whole entry, looked up): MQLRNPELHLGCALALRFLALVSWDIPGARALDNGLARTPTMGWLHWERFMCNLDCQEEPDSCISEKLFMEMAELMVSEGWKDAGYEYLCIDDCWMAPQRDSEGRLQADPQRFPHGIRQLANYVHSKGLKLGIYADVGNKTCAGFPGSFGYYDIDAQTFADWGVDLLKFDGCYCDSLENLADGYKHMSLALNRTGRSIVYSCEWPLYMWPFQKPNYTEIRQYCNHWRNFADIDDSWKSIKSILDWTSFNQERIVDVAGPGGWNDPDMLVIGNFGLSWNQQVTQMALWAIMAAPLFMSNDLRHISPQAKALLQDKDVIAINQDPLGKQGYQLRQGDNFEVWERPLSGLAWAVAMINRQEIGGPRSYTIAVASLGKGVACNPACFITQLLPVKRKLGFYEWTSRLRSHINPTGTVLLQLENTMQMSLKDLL
Rango release inh = prevents RanGTP from dissociating the Rango-importin beta complex; 0.071% of 340,000 active; O95149+P62826; Biochemical FRET Rango-importin beta, RanGTP-induced dissociation; Potency, µM (doses to about 46.1 µM), without a hit: top-dose activity change, negative = inhibition; AID 540253; active means falling FRET ratio curve, often poorly fitted, with flat reads before Ran was added; inconclusive means other falling curves, or compound fluorescence or quenching; inactive means flat or rising ratio curve;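 further: potency means the concentration at half of the fitted maximal effect; % of control where 0% means no effect; nearly all actives have a fitted effect of over 45% in size; -100% = wells without RanGTP and RCC1; the record marks most hits as doubtful in a second field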
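Compounds preincubate 5 min with complex of recombinant Rango and importin beta in PBS with 1 mM DTT. Ran (0.6 uM) loaded with 2 mM GTP plus 0.2 uM RCC1 starts dissociation; FRET is recorded 45 min later.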
An asterisk follows results filed as active; ? = inconclusive; . = not tested or not shown. A portion of the library (hit frequency here may not be typical).

SMILES | miR-21 FLuc | Rango complex inh | GLA inh pH 4.5 | Rango release inh
Cc1cc(-c2nnc(SCC(=O)Nc3nccs3)o2)no1 | -43% | -4.8% | 2 | -7%
N#Cc1ccc(-c2csc(NC3=NCCCCC3)n2)cc1 | -63% | 1.1% | -11 | -20%
COc1ccc(OC)c(N2Cc3ccccc3C2)c1 | -2% | 0.0% | 4 | -24%
CCCCCCCOc1ccc(C2CC(=O)N(C)C2=O)cc1 (stereo not given) | -15% | -3.0% | . | 10%
O=[N+]([O-])c1ccc(O)c(/C=N/Nc2nc3ccccc3[nH]2)c1 | -3% | 6.4% | -2 | -9%
COc1ccccc1CNC(=O)C1CCCN1S(=O)(=O)c1cccc2cccnc12 (stereo not given) | -19% | 0.7% | 0 | -1%
O=C(O)COc1ccc(/C=N/n2c(COc3ccccc3)nc3ccccc3c2=O)cc1 | -46% | 1.6% | -8 | -20%
C/C(=N\NC(=O)c1ccc(C)cc1C)c1ccc2c(c1)OCO2 | -44% | 3.2% | 1 | 2%
O=C(CCS(=O)(=O)c1ccc(Cl)cc1)Nc1ccc(F)cc1 | -2% | 0.2% | . | 1%
Cc1cccc(Nc2ncnc(N)c2[N+](=O)[O-])n1 | 26% | -0.4% | 3 | -16%
Cc1cc(NC(=O)C2CCCN2C(=O)Nc2cccc(Cl)c2)ccc1-n1cnnn1 (stereo not given) | -7% | 0.6% | 5 | 4%
C/C(=N\NC(=O)c1cc(Br)ccc1O)c1ccccn1 | -31% | -1.9% | . | 0%
COc1cccc(NC(=O)[C@H](C)NC(=O)C2CCN(S(=O)(=O)c3ccc(C)cc3)CC2)c1 | 0% | 0.5% | -3 | 0%
O=C(COc1ccc(Cl)cc1)NCC(=O)N1CCC2(CC1)NCCc1[nH]cnc12 | -1% | -6.4% | . | 10%
Cc1ccc2c(c1)N(CC(=O)N1CCc3ccccc3C1)C(=O)CO2 | -2% | -0.8% | 3 | -11%
O=C(NCc1ccccc1F)C1CCCN1C(=O)NC1CCCCC1 (stereo not given) | -26% | -1.3% | -10 | 8%
O=C(NC(NC(=S)Nc1cccc(Cl)c1)C(Cl)(Cl)Cl)OCc1ccccc1 (stereo not given) | ? | -1.3% | -11 | 1%
COCCn1c(C)cc(C(=O)CSc2nnc3ccccn23)c1C | ? | 5.7% | 3 | -3%
COc1cc2[nH]c(=S)n(N(C(C)=O)C(C)=O)c(=O)c2cc1OC | -1% | 4.8% | -9 | 11%
O=C(NCc1ccc(F)cc1F)c1cc(COc2c(F)cccc2F)on1 | -6% | -1.6% | -2 | 24%
O=C1C2CC=C(Cl)CC2C(=O)N1CCc1ccccc1 (stereo not given) | -21% | ? | 0 | ?
COc1ccccc1CN1CCC(n2nccc2NC(=O)CCOc2ccccc2)CC1 | 0% | -1.2% | . | -9%
COc1ccc(OC)c(Cc2nnc(CCC(=O)N3CCC(N4CCCCC4)CC3)o2)c1 | -9% | -0.4% | 3 | -11%
O=C(O)C1CCN(C(=O)c2cc(F)cc3c2OCOC3)CC1 | 1% | 4.5% | -17 | -6%
CC(C)(C)c1ccc(C(=O)NC(=S)N2CCCC2)cc1 | -16% | 6.3% | . | 11%

Continuation:
SMILES | miR-21 FLuc | Rango complex inh | GLA inh pH 4.5 | Rango release inh
CC(=O)c1c(C)oc2ccc(NS(=O)(=O)c3ccc(F)cc3C)cc12 | 4% | -1.4% | . | -2%
CCOC(=O)c1sc(=S)n(C)c1NC(=O)c1ccccc1C | -10% | 0.7% | 1 | -7%
CCn1nccc1C(=O)Nc1ccc(Cl)c(Cl)c1 | -64% | 6.0% | -1 | -2%
Cc1cc(C)n(CCCNC(=O)C(C)(C)Oc2ccc(Cl)cc2)n1 | . | 0.6% | . | 1%
COc1ccc(C(=O)N/C(=C\c2ccco2)C(=O)OCc2ccco2)cc1 | -6% | -0.9% | -6 | -11%
Cc1ccc(C)n1-c1ccc(C(=O)NN)cc1 | -13% | -3.7% | 3 | -2%
CCc1ccccc1NC(=O)CCN1C(=O)C2CC=CCC2C1=O (stereo not given) | 0% | 2.8% | . | 8%
COc1ccc(N(CC(=O)Nc2cccc(SC)c2)S(C)(=O)=O)cc1 | -48% | -1.7% | 9 | 3%
CCCCn1c(Cn2nc(C(=O)O)c3ccccc3c2=O)nc2cc(S(N)(=O)=O)ccc21 | -3% | 0.1% | . | -17%
Cc1ccc(C(=O)Nc2ccc(CC(=O)O)cc2)o1 | 5% | 4.3% | -1 | 16%
O=C(c1cc(Cl)ccc1Cl)N1CCN(Cc2ccccc2)CC1 | 7% | -2.2% | . | -12%
O=C(O)Cc1ccc(NC(=O)c2cnccn2)cc1 | 9% | 5.4% | 1 | -6%
Cc1cc(C)cc(-n2c(C)cc(/C=N/NC(=O)c3ccncc3)c2C)c1 | -9% | 0.3% | 3 | 2%
CCOC(=O)N1CCN(CC(O)COCC2=CCC3CC2C3(C)C)CC1 (stereo not given) | -9% | -0.4% | -16 | 0%
CC(=O)NCCc1ccc(S(=O)(=O)Nc2ccc3c(c2)OCCO3)cc1 | . | -1.7% | . | 0%
O=S(=O)(CCc1ccncc1)C1Cc2cccc3cccc1c23 (stereo not given) | -4% | 2.2% | 1 | 1%
Cc1cc(NC(=O)CCC(=O)N(c2ccccc2)C(C(=O)NC2CCCC2)c2ccccc2C)no1 (stereo not given) | -1% | 2.8% | . | -3%
O=C(COC(=O)COc1cc(Cl)c(Cl)cc1Cl)NC1CC1 | . | -0.4% | . | 1%
O=C(CS(=O)(=O)c1cn(Cc2cccc(F)c2)c2ccccc12)N1CCCCC1 | -2% | 0.4% | -13 | 2%
C/C(=N\N1CCN(C)CC1)c1ccc(OC(F)F)cc1 | -5% | -0.9% | 1 | 17%
COc1ccc(/C=N/Nc2ccc([N+](=O)[O-])cc2S(=O)(=O)N2CCN(C)CC2)cc1 | -9% | ? | -8 | ?
FC(F)(F)c1nc2ccccc2n2c(-c3ccc(Cl)cc3Cl)nnc12 | -1% | 3.7% | 3 | 0%
CCC(=O)Nc1ccc(S(=O)(=O)N2CCc3ccccc3C2)cc1 | -2% | -1.0% | -2 | 4%
COc1ccc(C(=O)NNC(=O)c2ccncc2)cc1[N+](=O)[O-] | -1% | 1.4% | . | -14%
CCCCSCCCNC(=O)Nc1ccc(C)c(C)c1 | -3% | -0.3% | -7 | 33%

Further compounds:
SMILES | miR-21 FLuc | Rango complex inh | GLA inh pH 4.5 | Rango release inh
COC(CNC(=O)CCc1c(C)nc2c(-c3ccc(F)cc3)c(C)nn2c1C)OC | -4% | 2.2% | 4 | 8%
NC(=O)Cc1c[nH]c2cccc(O)c12 | 0% | -0.2% | 7 | 9%
Cc1ccc(/C=C/C(=O)NCc2cccs2)c(C)c1 | -62% | -6.6% | 5 | 15%
COc1ccc(C2=NO[C@H]3C[C@](C(=O)NC(C)C)(S(=O)(=O)c4ccccc4)C[C@@H]23)cc1 | 2% | -0.5% | . | 19%
NC(=S)NN=Cc1ccc(-c2ccc(S(=O)(=O)Nc3ncccn3)cc2)o1 | . | ? | . | ?
Cc1ccc(NC(=O)CN(C)C(=O)c2ccccn2)cc1 | . | 6.2% | . | 20%
COc1cc(/C=C(\C#N)c2nc3ccccc3[nH]2)ccc1Oc1ccc([N+](=O)[O-])cn1 | -1% | ? | -5 | ?
O=C(O)COc1ccc2occ(C(=O)c3ccccc3)c2c1 | -11% | 1.1% | . | 0%
CC(NCc1cccs1)c1ccccc1 (stereo not given) | -1% | 2.0% | 3 | 8%
CCCCC(=O)Nc1ccc(C(=O)Nc2cccnc2)cc1 | -23% | 2.4% | 3 | -1%
N#CCCCC1(CCCC#N)OCCO1 | . | -1.6% | . | -25%
O=C(NCc1ccncc1)C(=O)NCC1OCCN1S(=O)(=O)c1ccc(Cl)cc1 (stereo not given) | 0% | ? | . | 2%
O=C(CN1CCOCC1)Nc1ccc(Cl)cc1 | -6% | -4.1% | . | 17%
COCCNC(=O)c1ccccc1NC(=O)c1ccccc1N(C)S(C)(=O)=O | -8% | -1.4% | 7 | -9%
COc1cc(OC)c(C2SCCCS2)cc1OC | -11% | 0.8% | -2 | -7%
Cc1ccc(-n2nc3c([n+]2[O-])CCc2c-3no[n+]2[O-])cc1 | -2% | -1.7% | 3 | 0%
Cc1cccc(N2CCN(C(=O)c3cc4c(=O)[nH]c5ccccc5c4n3C)CC2)c1C | . | -0.7% | . | 16%
CC1(C)N=C2C(=[N+]1[O-])CCC/C2=N\O | -2% | 0.1% | 2 | -12%
O=C(N/N=C/c1ccccc1F)c1csc2c1CCCC2 | -51% | -1.4% | 4 | 10%
Cc1ccc(S(=O)(=O)Nc2cccc3ncccc23)cc1 | -3% | ? | 3 | -14%
N#CCOC(=O)c1cc(S(=O)(=O)N2CCCCC2)ccc1N1CCOCC1 | . | ? | . | 18%
O=C(O)c1ccc(-n2cccn2)c([N+](=O)[O-])c1 | 1% | ? | 5 | 7%
Cc1cc(C(=O)CCC(=O)N2CCN(c3ccccc3F)CC2)c(C)s1 | -4% | 2.6% | 5 | 9%
COCCNC(=O)c1ccc(CS(=O)(=O)c2ccccc2C)o1 | -5% | 0.8% | . | 7%
Cc1ccc(S(=O)(=O)/N=C(/Nc2cccc(C(=O)O)c2)c2ccccc2)cc1 | 1% | -0.9% | . | 1%

Additional records:
SMILES | miR-21 FLuc | Rango complex inh | GLA inh pH 4.5 | Rango release inh
CCOc1ccc(C(=O)N2CCN(Cc3ccccc3)CC2)cc1OCC | -3% | 3.7% | . | -8%
CCCNC(=O)CN1CCC(c2nc3ccccc3[nH]2)CC1 | -5% | ? | . | ?
CC1(C)COC2(OC1)C(=O)N(CN1CCOCC1)c1ccccc12 | -6% | 1.8% | 0 | 12%
O=C(c1cc(-c2ccc(Cl)cc2)nc2ccccc12)N1CCC1 | . | 0.4% | . | -7%
OC(COCc1ccc(Cl)cc1)CN1CCCCC1 (stereo not given) | -5% | -4.5% | . | 9%
Cc1ccn2c(NCc3ccccc3)c(-c3cccs3)nc2c1 | -57% | -0.1% | 7 | 0%
CC1(C)Cc2c(C#N)c(SCC(=O)O)nc(N3CCOCC3)c2CO1 | . | -0.3% | . | -9%
O=C(c1sc2cc(F)ccc2c1Cl)N1CCN(c2ccccc2)CC1 | -13% | -0.2% | -4 | 11%
COc1ccc(C2C3=C(CCCC3=O)Nc3nc(-c4cc(OC)c(OC)c(OC)c4)nn32)cc1OC (stereo not given) | -1% | 0.9% | 20 | 1%
O=C(CNc1ccc(F)cc1F)NC(=O)NCc1ccco1 | -4% | 5.3% | 2 | 2%
CCOc1ccccc1NC(=S)N1CCN(c2ccccc2F)CC1 | 0% | -0.3% | . | -25%
CN1CCC(OC(=O)COc2ccc(C(C)(C)C)cc2)CC1 | -7% | 1.0% | -23 | 1%
CCC(C(=O)OC)n1cnc2c(nnn2-c2cccc(Cl)c2)c1=O (stereo not given) | 0% | -1.5% | -16 | 9%
CC(=O)OC1CCC2C3CCC4=CC(=O)CCC4(C)C3CCC2(C)[C@]1(C)O (stereo not given in full) | . | -1.6% | . | -1%
CCOc1nc2cnccc2n(CC(=O)Nc2ccccc2C(=O)OC)c1=O | -1% | 0.0% | . | 12%
CC1Cc2ccccc2N1CC(=O)Nc1ccc(N2CCOCC2)cc1 (stereo not given) | 1% | -1.0% | -11 | -2%
